From PubChem BioAssay
VDR inhibitor = Inhibitors of the vitamin D receptor (VDR): qHTS. Vitamin D3 receptor (Homo sapiens), P11473. VDR-SRC2-3 peptide fluorescence polarization, 2 h. Potency, µM, without a hit: max response, negative = inhibition, hits mostly inhibitors. 0.93% of 400,000 active; active = well fitted inhibition curve with a large enough effect; inconclusive = small, poorly fitted or top-dose-only effect, or another doubt; inactive = no such curve, though single readings can be large or run the other way; also: series mostly up to about 120 µM
Target sequence (P11473 whole entry, looked up): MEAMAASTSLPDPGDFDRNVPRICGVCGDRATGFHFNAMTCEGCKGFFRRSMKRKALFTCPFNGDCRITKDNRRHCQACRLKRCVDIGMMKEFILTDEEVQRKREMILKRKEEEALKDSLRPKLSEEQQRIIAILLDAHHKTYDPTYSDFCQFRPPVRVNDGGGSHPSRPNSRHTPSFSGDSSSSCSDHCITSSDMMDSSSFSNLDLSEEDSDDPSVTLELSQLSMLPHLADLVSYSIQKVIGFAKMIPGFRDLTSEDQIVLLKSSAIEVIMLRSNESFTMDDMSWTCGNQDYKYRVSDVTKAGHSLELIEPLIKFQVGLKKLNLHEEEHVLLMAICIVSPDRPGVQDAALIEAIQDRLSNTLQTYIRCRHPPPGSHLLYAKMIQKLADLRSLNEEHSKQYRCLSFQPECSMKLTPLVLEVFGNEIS
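Reagent solutions, kept cold and dark, are dispensed first; compounds are then pinned in at 23 nl, plates briefly spun, and incubated 2 h at ambient temperature. Inhibition of VDR–SRC2-3 peptide binding is read by fluorescence polarization.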
* = called active by the depositor; ? = inconclusive; & = joins results of further samples; [ ] = remark or other dose. % is scaled to controls: 0 for no effect and ±100 for the full control effect; potency is read from the fitted curve at half-maximal effect. Some of the compounds tested; the hit share may differ from the screen's.

SMILES	VDR inhibitor
Nc1nnc(SCC(=O)NNC(=O)c2ccc(Cl)cc2)s1	8%
CCOC(=O)N1CCN(C(=O)CCN2C(=O)/C(=C\c3cccc(OC)c3)SC2=S)CC1	32%[activator]
COc1ccc(/C=N/NC(=O)c2[nH]c3ccc(Br)cc3c2-c2ccccc2)c(C(=O)O)c1OC	-29%
Cc1cc(C)c(C(=O)c2ccc(C(=O)NC(C)(C)C)cc2)c(C)c1	-10%
CC(OC(=O)c1ccc(F)cc1)C(=O)Nc1nc(-c2cccc([N+](=O)[O-])c2)cs1 (stereo not given)	-14%
CCCn1nnc(NC(=O)COc2ccccc2Cl)n1	-18%
CC(C)(C)c1ccc(-n2ncc3c2CCCC3NC(=O)CN2CCCC2=O)cc1 (stereo not given)	1%
O=C1NC(c2ccc(Br)cc2)=N/C1=C/c1ccco1	-25%
O=[N+]([O-])c1cccc(NC(=S)N2CCN(c3ccccn3)CC2)c1	-2%
O=C(NCc1cccnc1)C(=O)NCC1OCCN1S(=O)(=O)c1cc(F)ccc1F (stereo not given)	1%
COC(=O)C(C)Sc1ncnc2c1c(-c1ccccc1)cn2-c1ccc(F)cc1 (stereo not given)	-23%
O=C(CNC(=O)c1ccc(Br)cc1)Nc1ccc2c(c1)CCC2	-12%
O=C(N/N=C\c1c[nH]c2ccccc12)c1ccc(O)cc1	2%
Cc1cc(C)c2c3c(sc2n1)C(=O)N(c1ccccc1)CC(=O)N3	8%
Cc1ccc(C(C)C)c(OCCCn2ccnc2C)c1	-1%
O=C(c1ccc(Br)cc1)N1CCCC(c2nc(-c3cccs3)no2)C1 (stereo not given)	-9%
COc1ccc2c(c1)n([O-])c1c([n+]2=O)CCC1	-20%
O=C1OC(c2ccc(Cl)cc2)=C/C1=C/c1cccnc1	-22%
CC(C)c1ccc(NC(=O)c2cccc(NC3=NC4CS(=O)(=O)CC4S3)c2)cc1 (stereo not given)	3%
O=C(O)/C(=C/c1cccnc1)NC(=O)c1ccccc1	-14%
CCN(c1ccc(C)cc1C)S(=O)(=O)c1nnc(NC(=O)c2ccco2)s1	12%
CS(=O)(=O)N1CCN(C(=O)c2csc3ccccc23)CC1	1%
C/C(N)=C(/C#N)C(=O)CSc1nc2scc(-c3ccccc3)c2c(=O)n1C	-22%
CCOC(=O)c1cc(-c2ccc(N3CCOCC3)cc2)nn1-c1ccccc1	-2%
CCCS(=O)(=O)N1CCN(C(=O)c2cccc(OC)c2)CC1	4%
CN(c1ccccc1)S(=O)(=O)c1ccccc1Br	-26%
CC12CCCc3c(O)cc(=O)n(c31)-c1ccccc12 (stereo not given)	-7%
Cc1ccc(NC(=O)CCN2CCc3ccccc3C2)cc1	-1%
CCN(CC)CCNC(=O)c1cccc(NC(=O)C(=O)c2cc(Br)ccc2NC(C)=O)c1	1%
COc1ccc(Cl)cc1NC(=O)c1cc2c(s1)-c1ccccc1OC2	-8%
C=CCc1c(C)nc(-c2ccccc2)nc1Nc1ccc(O)cc1	0%
COc1ccc(OCCn2c(C3CC(=O)N(c4ccc(F)cc4)C3)nc3ccccc32)cc1 (stereo not given)	16%
CN1CCN(S(=O)(=O)c2cccc(C(=O)Nc3sc4c(c3C(N)=O)CCCC4)c2)CC1	4%
COC(=O)/C(=C\Nc1ccccc1N)c1ncc(C(F)(F)F)cc1Cl	3%
CC(C)c1ccc(N2C(=O)N(Cc3cccc([N+](=O)[O-])c3)c3ccccc3S2(=O)=O)cc1	13%
Cc1ccc(Oc2nc(CN3CCOCC3)nc3sc4c(c23)CCC(C)C4)cc1 (stereo not given)	-12%
COc1ccc(N(CC(=O)Nc2cc(C)ccc2OC)S(=O)(=O)c2c(C)noc2C)cc1	16%
CCOC(=O)NC(NCc1cccc(C(F)(F)F)c1)(C(F)(F)F)C(F)(F)F	4%
CC(O/N=C(\N)c1ccccc1)C(=O)Nc1cccc(C(F)(F)F)c1 (stereo not given)	-17%
O=C(NCc1ccccc1)C1=C[C@H](C2CC2)C[C@H](OCCCCO)O1	-2%
Cn1c(C(C(=O)NCC2CCCO2)N(C(=O)Cn2nnc3ccccc32)C2CCCCC2)nc2ccccc21 (stereo not given)	4%
CC(C)C1=NN(C(=O)c2ccccc2)C(O)(C(C)(C)C)C1 (stereo not given)	14%
COCCc1nnc(NC(=O)C(C)C)s1	7%
Cn1c(=S)c2[nH]c(SCc3cccnc3)nc2n(C)c1=O	-17%
Nc1ccccc1C#Cc1ccc2[nH]ccc2c1	5%
CS(=O)(=O)c1ccc(-c2cccc(NC(=O)COc3ccccc3)c2)nn1	-6%
O=C(Cn1c(=O)n(Cc2ccco2)c(=O)c2cccnc21)Nc1ccccc1F	-9%
c1ccc2sc(-c3ccc4c(c3)OCO4)nc2c1	31%[activator]
COC(=O)C1(C)C=C(Nc2ccc(OC)cc2)C(=O)N1c1ccc(OC)cc1 (stereo not given)	9%
COC(=O)c1ccccc1NC(=O)C1=CC(c2ccc3c(c2)OCO3)=NS(=O)(=O)N1C	14%
CC1S/C(=N/N=C2CCCCC2)NC1=O (stereo not given)	-8%
CCn1c(=O)c(C(=O)NNC(=O)c2cccc(Cl)c2)c(O)c2ccccc21	-3%
CCCCn1c(CCC(=O)O)nc2cc(S(=O)(=O)N3CCCC3)ccc21	-5%
COc1ccc(NC(=O)CN(C)C(=O)c2cccc(S(=O)(=O)N3CC4(C)CC3CC(C)(C)C4)c2)cc1 (stereo not given)	2%
CCOc1cccc2sc(N(CCN(CC)CC)C(=O)c3ccc(S(=O)(=O)N4CCCCC4)cc3)nc12	5%
Cc1ccc2[nH]c(=O)c(CN(CC3CCCO3)C(=S)NCc3ccco3)cc2c1 (stereo not given)	-21%
CN1/C(=C\C(=O)C[n+]2ccc3ccccc3c2)C(C)(C)c2ccccc21	7%
COc1ccc(CCNC(=O)[C@@H](NC(N)=O)C(C)C)cc1	-29%
Cn1ccnc1SCCNC(=O)CCc1nnc(CCc2ccccc2)o1	-12%
CCCCCCCc1ccc(C2NC(=S)NC3=C2C(=O)c2ccccc23)cc1 (stereo not given)	?

(more compounds)
SMILES	VDR inhibitor
Cc1ccc(-c2c[n+](CC(=O)Nc3nc(-c4ccc(F)cc4)cs3)c3n2CCC3)cc1	-7%
CCOC(=O)c1ccccc1NC(=O)c1nn(C)c2c1COc1ccccc1-2	0%
CCC(C)NC(=O)c1cc2cc3ccc(OC)cc3nc2s1 (stereo not given)	-5%
O=C(Cc1cccc(NC(=O)C2CCCN(C(=O)C3CCCC3)C2)c1)Nc1ccc(C(=O)N2CCCCC2)cc1 (stereo not given)	-13%
Cc1ccc(S(=O)(=O)Cc2cccc(C(=O)N3CCOCC3)c2)cc1	6%
Cc1cccnc1NC1OC(=O)c2ccccc21 (stereo not given)	-12%
C[C@H](NC(=O)CNC(=O)[C@@H](NC(=O)[C@H](Cc1ccccc1)NC(=O)CNC(=O)CNC(=O)[C@@H](N)Cc1ccccc1)[C@@H](C)O)C(=O)N[C@@H](CCCN=C(N)N)C(=O)N[C@@H](CCCCN)C(=O)N[C@@H](CO)C(=O)N[C@@H](C)C(=O)N[C@@H](CCCN=C(N)N)C(=O)N[C@H](CN)CCCCN	1%
Cc1ccccc1CNC1CCCCC1	4%
CCOC(=O)c1c(C)nc2sc3c(=O)n(-c4ccc(C(C)=O)cc4)cnc3c2c1-c1ccc(Cl)cc1	32%[activator]
COc1ccc(C/C(N)=N/OC(=O)Cc2ccccc2)cc1OC	2%
O=[N+]([O-])c1ccc2c(c1)S(=O)c1ccccc1-2 (stereo not given)	-4%
O=C1CN(S(=O)(=O)c2ccc(Br)cc2)c2ccccc2N1	-14%
Cc1cc(=O)oc2c3c4c(cc12)OCCN4CCC3	14%
O=C(O)C1C2C=CC(C2)C1C(=O)NCc1cccnc1 (stereo not given)	7%
COC(=O)c1cc(CNC(=O)CC(C)c2ccccc2)ccc1OC (stereo not given)	5%
Cc1c(CCC(=O)N2CCC(C(=O)O)(c3ccccc3)CC2)c(=O)oc2cc3oc4c(c3cc12)CCCC4	-16%
CC(=O)c1ccc(NC(=O)C2CCCC2)cc1	2%
COc1ccc(C(=O)CC(=O)O)c2c1C=CC(C)(C)O2	-16%
COc1ccc(CCNC(=O)C(=O)Nc2nccs2)cc1OC	-11%
COc1ccccc1N(CC(=O)NCCN1CCOCC1)S(=O)(=O)c1ccccc1	-9%
CCc1cccc(CC)c1NC(=O)COC(=O)c1ccccc1-c1nc2ccccc2s1	2%
Cc1cc2c(c(SCC(=O)N(C)c3ccccc3)n1)C(=O)OC2	0%
Cc1ccc(Cn2c(=O)c3cccnc3n(CC(=O)Nc3cc(Cl)ccc3C)c2=O)cc1	-18%
CCCCNC(=O)Cn1c(=O)oc2cc(S(=O)(=O)N3CC(C)CC(C)C3)ccc21 (stereo not given)	-3%
COc1ccccc1C1=NOC(COC(=O)c2ccc3ccccc3n2)C1 (stereo not given)	19%
O=C(Cc1ccc(-n2c(=O)[nH]c3ccccc3c2=O)cc1)N1CCN(c2cccc(Cl)c2)CC1	0%
COc1cccc(CNC(=O)c2ccc(OC)c(S(=O)(=O)NC3CCCC3)c2)c1	-11%
Cc1ccc(/C=C/C(=O)NCCCN2CCN(CCCNC(=O)/C=C/c3ccc(C)o3)CC2)o1	3%
CCCCc1nc(SCC(=O)N2CCOCC2)c2c(=O)n(C)c(=O)n(C)c2n1	-15%
CCc1ccccc1NC(=O)CSc1nc2n[nH]c(C)c2c(=N)n1-c1ccc(OC)cc1	10%
CN1CCN(C(=O)c2ccc3c(c2)N(Cc2ccc(F)cc2)C(=O)c2ccccc2S3=O)CC1 (stereo not given)	-11%&-21%
CCN(CC)c1nn2c(=O)c(C(=O)NCc3ccc(F)cc3)cnc2s1	8%
CSc1nc(SC)c2c3c(oc2n1)COC(C)(C)C3	0%
Cc1cc(C)n(-c2nc3ccccc3nc2Nc2cccc(C)c2C)n1	11%
CN(C)C(=S)SCC(=O)NC(=O)NC(C)(C)C	-7%
[C-]#[N+]c1cc(-c2ccncc2)c(C)[nH]c1=O	-5%
CCOC(=O)CSc1nc2c(cnn2-c2ccc(Cl)cc2)c(=O)[nH]1	4%
O=C(NCC1CCCO1)c1cc2c(s1)CS(=O)(=O)C2 (stereo not given)	-4%
O=C(Oc1ccccc1)N1CCC[C@@]2(CCN(c3ncccn3)C2)C1	-8%
Cc1cccc(NC(=O)c2ccc(OCC(=O)NCc3ccccc3)cc2)c1C	-10%
C#CC(CC)(CC)NC(=O)c1cc(S(=O)(=O)N2CCCCC2)ccc1N1CCOCC1	-10%
Cn1c(Cn2nnc3ccccc32)nnc1SCC(=O)N1c2ccccc2Sc2ccccc21	-5%
CC(=O)c1cc(-c2ccccc2)n(CC(=O)NC2CCCCC2)c1C	18%&20%
COc1ccc2c(CNCCc3ccco3)c(C(=O)O)n(Cc3ccc(C)cc3)c2c1	3%
CC1(C)C(=O)N(CC(=O)Nc2ccc(Br)cc2F)c2ccccc21	-1%
CCOC(=O)c1nnn(-c2nonc2N)c1COc1cc(C)c(Cl)c(C)c1	-8%
Nc1cc(OC(=O)c2ccc(F)cc2)nn1S(=O)(=O)c1ccccc1	-20%
O=C(c1cc(S(=O)(=O)N2CCOCC2)ccc1F)N(Cc1nnc(-c2ccccc2Cl)o1)C1CC1	-1%
CCOc1cc(N2CCOCC2)c(OCC)cc1NC(=O)COC(=O)c1ccc(OC)c([N+](=O)[O-])c1	-15%
Fc1ccc(Nc2nc(SCc3ccc(Cl)cc3)nc3ccccc23)cc1	-11%
N#C/C(=C(/O)c1cccs1)c1nc2ccccc2[nH]1	-12%
CC(=O)NC1(C(F)(F)F)N=C2SCCN2C1=O (stereo not given)	-14%
COC(=O)CCCC1=CC2=CC(=O)C(C)(OC(=O)c3cccs3)C(=O)C2=CN1c1cccc(C#N)c1 (stereo not given)	-11%

Structures from the list above with an aryl methoxy group, in the order listed:
SMILES	VDR inhibitor
CCOC(=O)N1CCN(C(=O)CCN2C(=O)/C(=C\c3cccc(OC)c3)SC2=S)CC1	32%[activator]
COc1ccc(/C=N/NC(=O)c2[nH]c3ccc(Br)cc3c2-c2ccccc2)c(C(=O)O)c1OC	-29%
COc1ccc2c(c1)n([O-])c1c([n+]2=O)CCC1	-20%
CCCS(=O)(=O)N1CCN(C(=O)c2cccc(OC)c2)CC1	4%
COc1ccc(Cl)cc1NC(=O)c1cc2c(s1)-c1ccccc1OC2	-8%
COc1ccc(OCCn2c(C3CC(=O)N(c4ccc(F)cc4)C3)nc3ccccc32)cc1 (stereo not given)	16%
COc1ccc(N(CC(=O)Nc2cc(C)ccc2OC)S(=O)(=O)c2c(C)noc2C)cc1	16%
COC(=O)C1(C)C=C(Nc2ccc(OC)cc2)C(=O)N1c1ccc(OC)cc1 (stereo not given)	9%
COc1ccc(NC(=O)CN(C)C(=O)c2cccc(S(=O)(=O)N3CC4(C)CC3CC(C)(C)C4)c2)cc1 (stereo not given)	2%
COc1ccc(CCNC(=O)[C@@H](NC(N)=O)C(C)C)cc1	-29%
CCC(C)NC(=O)c1cc2cc3ccc(OC)cc3nc2s1 (stereo not given)	-5%
COc1ccc(C/C(N)=N/OC(=O)Cc2ccccc2)cc1OC	2%
COC(=O)c1cc(CNC(=O)CC(C)c2ccccc2)ccc1OC (stereo not given)	5%
COc1ccc(C(=O)CC(=O)O)c2c1C=CC(C)(C)O2	-16%
COc1ccc(CCNC(=O)C(=O)Nc2nccs2)cc1OC	-11%
COc1ccccc1N(CC(=O)NCCN1CCOCC1)S(=O)(=O)c1ccccc1	-9%
COc1ccccc1C1=NOC(COC(=O)c2ccc3ccccc3n2)C1 (stereo not given)	19%
COc1cccc(CNC(=O)c2ccc(OC)c(S(=O)(=O)NC3CCCC3)c2)c1	-11%
CCc1ccccc1NC(=O)CSc1nc2n[nH]c(C)c2c(=N)n1-c1ccc(OC)cc1	10%
COc1ccc2c(CNCCc3ccco3)c(C(=O)O)n(Cc3ccc(C)cc3)c2c1	3%
CCOc1cc(N2CCOCC2)c(OCC)cc1NC(=O)COC(=O)c1ccc(OC)c([N+](=O)[O-])c1	-15%
